From PubChem
Rango release inh = inhibitors of RanGTP-induced Rango-importin beta complex dissociation; Potency, µM (highest dose often 46.1 µM), without a hit: at the highest dose activity change, negative = inhibition; O95149+P62826; AID 540253; 340,000 tested, 0.071% active; Biochemical FRET Rango-importin beta, RanGTP-induced dissociation; active means falling FRET ratio curve, often poorly fitted, with flat reads before Ran was added; inconclusive means other falling curves, or compound fluorescence or quenching; inactive means flat or rising ratio curve;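 note: potency is the fitted concentration of half-maximal effect; % of control where 0% means no effect; nearly all actives have a fitted effect of over 45% in size; -100% = wells without RanGTP and RCC1; the record marks most hits as doubtful in a second field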
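Two FRET readings bracket the reaction: one 5 min after compound meets Rango–importin beta, another 45 min after RanGTP-RCC1 (0.6 uM Ran, 0.2 uM RCC1, 2 mM GTP) is added. Only the second defines inhibition.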
Rango complex inh = prevents formation of the Rango-importin beta complex; Q14974; Rango CFP/YFP FRET sensor + importin beta, 45 min; Potency, µM (top dose mostly 92.2 µM), inactives show at the highest dose inhibition of complex formation; 340,000 tested, 0.031% active; AID 540263; active = rising FRET ratio curve, often small or poorly fitted; inconclusive = mostly compound fluorescence or quenching in the first reads; inactive = flat curves in all reads;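 note: potency is the fitted concentration of half-maximal effect; 0% = DMSO wells and 100% = buffer wells lacking importin beta; nearly all actives have a fitted effect of over 15% in size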
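Inhibition scored from the CFP 486 nm/YFP 530 nm FRET ratio 45 min after adding 0.125 microM importin beta to 50 nM Rango biosensor preincubated 5 min with compound (room temperature, PBS with DTT, Tween-20, BSA). No-importin wells as positive control.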
miR-21 reporter = miR-21 reporter, rising signal. Potency, µM (highest dose often 38.3 µM), for the others: at the top dose reporter change, positive = more light. AID 2288. 340,000 tested, under 10 active. HeLa miR-21 FLuc reporter, luciferase, 48 h; active = well fitted rising curve with a large enough effect; inconclusive = small, poorly fitted or top-dose-only effect; inactive = no such curve, though single readings can be large or run the other way;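 note: % of control where 0% means no effect; miR-21 action dims this reporter so a rising signal means less miR-21 action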
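HeLa miR-21-FLuc reporter line, endogenous miR-21; 2000 cells/well in DMEM/10% FBS; compound titration up to ~40uM final, 48 h, 37 degree Celsius; luciferase detection reagent, 15 min lysis, CCD luminescence.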
GLA inh pH 4.5 = alpha-galactosidase A (human) inhibition, pH 4.5; purified enzyme, 4-MU-alpha-Gal fluorescence, pH 4.5; P06280; activity change, negative = inhibition, % at 105 µM; 230,000 tested, under 10 active; inconclusive = small, poorly fitted or top-dose-only inhibition, or a rising curve; inactive = flat fitted curve, though single readings scatter; no compound was filed as active;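 note: 0% = full activity with enzyme and -100% = basal without enzyme; dose as in the result columns while the protocol names 77 µM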
Target sequence (P06280 whole entry, looked up): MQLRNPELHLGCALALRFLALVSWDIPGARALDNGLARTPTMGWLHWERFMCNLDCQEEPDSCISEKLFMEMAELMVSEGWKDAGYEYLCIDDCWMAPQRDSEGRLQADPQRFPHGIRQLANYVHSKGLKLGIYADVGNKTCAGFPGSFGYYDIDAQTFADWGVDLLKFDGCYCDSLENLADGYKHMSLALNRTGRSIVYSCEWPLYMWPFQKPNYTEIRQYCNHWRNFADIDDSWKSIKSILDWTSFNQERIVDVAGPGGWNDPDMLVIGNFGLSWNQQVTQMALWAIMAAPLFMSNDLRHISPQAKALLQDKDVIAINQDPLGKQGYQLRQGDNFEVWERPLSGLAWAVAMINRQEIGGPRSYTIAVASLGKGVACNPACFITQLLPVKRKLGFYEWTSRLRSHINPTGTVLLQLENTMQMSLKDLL
* hit, by the source's call; ? = inconclusive; . = no result given; & = joins results of further samples.

SMILES	Rango release inh	Rango complex inh	miR-21 reporter	GLA inh pH 4.5
CCOC(=O)c1c(C)[nH]c(C(=O)CSc2nnnn2-c2ccc(C)cc2)c1C	-3.4%	-1.1%	-4.9%	0.6
COC(=O)c1ccc(COc2ccc(CNCc3ccc(Cl)cc3)cc2)cc1	-6.8%	0.1%	-23.3%	.
C=CCN(c1ccccc1C(=O)NCC(=O)OCC)S(=O)(=O)c1ccc(C)cc1	1.9%	2.7%	-0.4%	0.3
CCCC(C)C(=O)Nc1cccc(NC(C)=O)c1 (centres undefined)	0.2%	-0.8%	4.7%	-0.9
Cc1ccc(NC(=O)N2CCCC2C(=O)NCc2ccccc2Cl)cc1 (centres undefined)	11.6%	-2.4%	-5.4%	.
CN(CC(=O)NC1CCCCCC1)S(=O)(=O)c1ccc(Br)cc1	-15.9%	-0.2%	0.4%	.
CCOC(=O)c1cccc(N2C(=O)C3C(C(=O)NC4CC4)C4(C)C=CC3(O4)C2C(=O)NC(C)(C)C)c1 (centres undefined)	0.4%	-1.2%	3.1%	5.6
COc1ccc(C(=O)Nc2nc(-c3cccs3)c(NC(C)=O)s2)cc1	-7.7%	-4.0%	-22.4%	0.7
Brc1ccc2c(c1)C(C1=NCCN1)c1ccccc1CS2 (centres undefined)	23.9%	?	22.3%	3.4
Cc1c(Cc2ccccc2)c(=O)oc2cc(OCC(=O)NC(Cc3ccc(Cl)cc3)C(=O)O)ccc12 (centres undefined)	7.4%	-5.3%	1.0%	.
COc1cc(N2CCC(O)CC2)ccc1Nc1nnc(Cl)c(Nc2ccccc2S(C)(=O)=O)n1	-2.1%	3.8%	.	.
COc1ccc(OC)c2sc(NC(=O)c3cccc(N4C(=O)CCC4=O)c3)nc12	-0.2%	2.9%	-0.4%	.
COc1ccccc1NC(=O)c1cc(-c2cc(OC)c(OC)c(OC)c2)nc2ccccc12	19.3%	4.9%	-2.0%	.
Cc1cc(=O)n2c(nc3ccccc32)[nH]1	-2.0%	4.6%	-20.4%	5.2
C/C=C/c1ccc(OCCCCOc2c(OC)cccc2OC)c(OC)c1	18.1%	0.8%	-8.8%	1.8
O=c1nc(NCc2ccccc2Cl)cn[nH]1	-0.5%	-2.3%	-1.0%	-4.8
CCN1CCN(C(c2ccccc2)c2nnnn2Cc2ccccc2)CC1 (centres undefined)	12.4%	1.2%	-6.5%	-0.7
CC(=O)N1CCN(c2ccc(NCc3cccc4ccccc34)cc2)CC1	-7.1%	1.7%	2.3%	.
CCC1(c2ccccc2)NC(=O)N(CC#N)C1=O (centres undefined)	-3.8%	0.4%	3.2%	5.0
CCc1ccc(Nc2cc(=O)n(C3CCCCC3)c(=O)[nH]2)cc1	-3.4%	-4.1%	-0.1%	-8.9
Cc1cc(C)c(C)c(S(=O)(=O)NCC(=O)Nc2sc3c(c2C(N)=O)CCCC3)c1C	-2.1%	5.6%	3.3%	3.8
O=C(Nc1ccccc1OC(F)F)c1ccc(S(=O)(=O)N2CCOCC2)cc1	3.3%	-0.1%	-0.6%	.
CCCNC(=S)N1CCC(NC(=O)c2ccc(C)cc2)CC1	13.7%	-4.2%	-0.8%	.
Cc1cccc(C2N(c3ccc(F)cc3)C(=O)C3CCCN32)c1 (centres undefined)	-16.3%	-4.3%	.	.
COc1ccc(C(=O)NCc2nnc(SCC(=O)NC3=NCCS3)n2C)cc1	23.9%	-1.6%	4.0%	.

Later entries.
SMILES	Rango release inh	Rango complex inh	miR-21 reporter	GLA inh pH 4.5
O=C(NC(c1ccccc1)c1cc(Cl)c2cccnc2c1O)c1cccnc1 (centres undefined)	.	.	?	-3.8
O=C(COC(=O)c1ccccc1NS(=O)(=O)c1ccc(Cl)cc1)NCc1ccccc1	6.5%	-1.0%	-4.0%	11.5
Cc1ccc2c(C)c(C(=O)N3CCCC(C(N)=O)C3)oc2c1C (centres undefined)	-0.9%	0.5%	-63.1%	.
CNC(CC(C)C)C(=O)NC1C(=O)NC(CC(N)=O)C(=O)NC2C(=O)NC3C(=O)NC(C(=O)NC(C(=O)O)c4cc(O)cc(O)c4-c4cc3ccc4O)C(O)c3ccc(c(Cl)c3)Oc3cc2cc(c3OC2OC(CO)C(O)C(O)C2OC2C[C@](C)(N)C(O)C(C)O2)Oc2ccc(cc2Cl)C1O (some centres undefined)	-0.4%	0.1%	.	.
CCN(C[C@H]1N[C@@](CC)(C(=O)OC)[C@H]2C(=O)N(Cc3ccccc3)C(=O)[C@@H]12)C(=O)COc1ccccc1	9.9%	0.6%	.	.
COc1ccc(C(=O)N(Cc2ccco2)Cc2cccs2)c(O)c1	-6.8%	-0.4%	-0.2%	-3.6
Cn1c(=O)[nH]c(=O)c2c1nc(N1CCNCC1)n2Cc1ccccc1	-2.5%	2.5%	3.2%	.
O=c1[nH]c(C2CCN(S(=O)(=O)c3ccccc3)CC2)nc2c1nnn2Cc1ccccc1	-4.6%	-1.8%	-1.2%	-6.6
CCn1ccc(C(=O)Oc2ccc(Cl)cc2)n1	-4.1%	?	-6.2%	-12.7
CCN(C(=O)CSc1nc(N)cc(=O)[nH]1)c1c(N)n(Cc2ccccc2)c(=O)[nH]c1=O	-1.8%	-2.2%	.	.
CN(Cc1ccccc1)C(=O)c1nc[nH]c1C(=O)N1CCc2ccccc2C1	-9.1%	-0.4%	.	.
Cc1occc1-c1n[nH]c(=S)n1-c1ccccc1	4.1%	-1.0%	-5.8%	5.4
CCOc1ccc(NC(=O)CN2CCN(CC(=O)Nc3ccc(OC)cc3OC)CC2)cc1	-7.2%	3.4%	0.7%	.
CC(C(=O)Nc1ccc(C#N)cc1)N1CCN(C(=O)C2CC2)CC1 (centres undefined)	-3.4%	1.4%	.	.
CCN(CC(O)COc1ccc(OCC(O)CN(CC)C2CCCCC2)cc1)C1CCCCC1 (centres undefined)	1.7%	-1.6%	.	.
Cc1cc(C)cc(Oc2nn[nH]n2)c1	14.3%	-2.4%	-7.8%	-7.0
CCN(CC)C(=O)COc1coc(CN2CCN(c3ccccc3F)CC2)cc1=O	2.3%	-3.1%	0.3%	.
CC(=O)c1nn(-c2ccc(C(F)(F)F)cc2)c(=O)[nH]c1=O	26.0%	-1.6%	-14.5%	.
CCOc1ncccc1C(=O)NNC(=O)c1cccc(S(=O)(=O)Nc2ccc(OC)cc2)c1	-16.3%	-3.8%	1.9%	.
Cc1ccc(NC(=O)CO/N=C/c2ccccc2C)c(C)c1	-4.7%	-4.2%	0.6%	8.8
CC(=O)NC(Cc1c[nH]c2ccccc12)C(=O)N1CCc2ccccc2C1 (centres undefined)	-22.4%	-3.6%	-5.7%	9.4
Fc1ccc(Nc2ccc(-c3ccc(F)cc3)nn2)cc1	16.9%	3.6%	-63.1%	-0.3
O=C(O)c1ccc(CNS(=O)(=O)c2ccc3ccccc3c2)cc1	-10.4%	2.9%	2.3%	.
COc1ccc(-c2nc(CS(=O)CC(=O)NCc3ccc(F)cc3)c(C)o2)cc1 (centres undefined)	-4.1%	0.0%	-1.8%	.
CC1CC1C(=O)OCC(=O)N(C)CC(=O)Nc1ccc(F)cc1 (centres undefined)	4.3%	-0.6%	.	.

Whole records, quoted from the list. Order of values: Rango release inh | Rango complex inh | miR-21 reporter | GLA inh pH 4.5
Results for Cc1occc1-c1n[nH]c(=S)n1-c1ccccc1 = 4.1% | -1.0% | -5.8% | 5.4
Results for CC1CC1C(=O)OCC(=O)N(C)CC(=O)Nc1ccc(F)cc1 (centres undefined) = 4.3% | -0.6% | . | .
Results for Cn1c(=O)[nH]c(=O)c2c1nc(N1CCNCC1)n2Cc1ccccc1 = -2.5% | 2.5% | 3.2% | .

Additional results follow.
SMILES	Rango release inh	Rango complex inh	miR-21 reporter	GLA inh pH 4.5
NS(=O)(=O)c1ccc(CCNC(=S)Nc2ccc(F)cc2)cc1	-0.5%	-0.6%	-1.0%	8.5
CC(NC(=O)COC(=O)c1ccccc1O)C1CC2CCC1C2 (centres undefined)	0.9%	5.6%	.	.
COC(=O)c1cc(C(=O)OC)cc(-n2c(C)cc(C=O)c2C)c1	2.0%	-0.6%	1.9%	7.7
O=C(NC1CC1)c1cccc(Oc2ccccc2)c1	-5.2%	-2.3%	-25.3%	.
Cc1c(NC(=O)c2ccc(N(C)S(=O)(=O)c3ccccc3)cc2)c(=O)n(-c2ccccc2)n1C	3.4%	5.7%	3.6%	-10.2
CC1(C)Cc2nc3sc(C(=O)NCCO)c(N)c3cc2CO1	-13.5%	0.5%	-31.7%	-2.5
Cc1ccc(NC(=O)CC2SC3=NCCCN3C2=O)c(C)c1 (centres undefined)	?	?	-3.5%	-6.2
CC(=O)Nc1nc2ccccc2n1Cc1ccccc1	0.9%	3.9%	-12.1%	-6.6
Cc1c(CNCCc2ccccc2)c(C(=O)O)c(C)n1-c1ccccc1	-7.7%	?	-11.7%	.
O=C(CN1C(=O)NC2(CCCCC2)C1=O)Nc1cccc2ncccc12	13.3%	-3.2%	.	.
C/C=C/Cn1c(SCc2ccc(Cl)cc2)nc2c1c(=O)[nH]c(=O)n2C	-1.2%	2.3%	-24.7%	4.8
Cc1cc(OC(C)C(=O)NCCN2CCOCC2)c2c(C)c(C)c(=O)oc2c1 (centres undefined)	53.1%	4.3%	0.9%	.
COc1cccc(C2/C(=C(\O)c3ccc4c(c3)OCO4)C(=O)C(=O)N2CCN(C)C)c1OC (centres undefined)	-11.0%	0.7%	-0.6%	-7.7
COc1ccc(-n2nc(C(=O)NCC(=O)NC(C)C)c3ccccc3c2=O)cc1	18.6%	0.7%	0.6%	.
O=C(COc1ccccc1[N+](=O)[O-])NCCC1=CCCCC1	-3.0%	3.7%	-29.8%	1.9
COc1ccc(NS(=O)(=O)c2ccc(-c3coc(C)n3)cc2)cc1OC	0.8%	-1.3%	22.2%	.
COc1ccc(NC(=O)CN(C)C(=O)c2cn(-c3ccccc3)nc2-c2cccnc2)cc1	12.7%	1.1%	.	.
CCCCN(C(=O)c1ccccc1OCc1ccc(F)cc1)c1c(N)n(CCC)c(=O)[nH]c1=O	-6.4%	2.0%	-1.0%	.
O=C(c1cccc(C(=O)N2CCN(c3ccccc3)CC2)c1)N1CCN(c2ccccc2)CC1	-12.6%	8.5%	17.0%	1.7
CNC(=S)Nc1cccc(S(=O)(=O)NC2=NCCC2)c1	1.6%	-0.2%	-0.4%	-17.3
CCOc1ccc(C(=O)NCC(=O)OCC(=O)N2CCCCC2)cc1	-4.6%	-0.8%	-5.7%	9.3
O=C(Nc1ccc(Cn2cccn2)cc1)c1ccc(COc2ccc(Br)cc2)cc1	0.6%	-0.2%	-2.5%	9.8
COc1ccccc1-c1oc2ccccc2c1C#CCCCCO	-13.4%	-3.0%	.	.
NC(=O)c1ccc(NC(=O)COC(=O)CC23CC4CC(CC(Br)(C4)C2)C3)cc1	?	1.1%	.	.
C1=CC2CC1CC2CN1CCN(c2ccccc2)CC1 (centres undefined)	15.6%	4.3%	-12.9%	-4.1

(further entries)
SMILES	Rango release inh	Rango complex inh	miR-21 reporter	GLA inh pH 4.5
CSc1ccccc1OCc1cc(C(=O)NC2CCOC(C)(C)C2)no1 (centres undefined)	5.7%	3.2%	-11.8%	.
CCOC(=O)C1CCN(c2cc3c(cc2NC(=O)c2ccccc2Cl)n(C)c(=O)n3C)CC1	-5.8%	0.7%	15.4%&13.4%	.
CCOc1ccc(-c2nc(CSCC(=O)NCC3CCCO3)c(C)o2)cc1 (centres undefined)	0.9%	-2.5%	2.4%	.
C#CCOCCOCCOCCNc1nc(N2CCN(C(=O)[C@H](CCCCN)n3cc(CN)nn3)CC2)nc(N2CCN(C(=O)[C@H](CCC(=O)O)n3cc([C@@H](N)[C@H](C)CC)nn3)CC2)n1	-7.0%	1.1%	.	.
COc1ccc(NC(=O)C2CCCO2)cc1OC (centres undefined)	9.7%	-0.8%	0.5%	-1.7
O=c1[nH]c2ccccc2n2c(=S)[nH]nc12	-16.0%	-5.0%	-4.7%	-0.2
O=C(COC(=O)C1CCN(S(=O)(=O)c2cccc3cccnc23)CC1)c1ccccc1	36.3%	-4.5%	-2.7%	-1.0
CC(C)OC(=O)CCCNc1ccc([N+](=O)[O-])cc1[N+](=O)[O-]	2.0%	4.2%	-1.7%	0.5
CCOc1ccc(N2CC(C(=O)Nc3ccc(S(=O)(=O)N4CCOCC4)cc3)CC2=O)cc1 (centres undefined)	9.4%	5.0%	-4.6%	0.2
CN1C(=O)/C(=C/C=C2\SCCN2C)OC1=S	?	?	-40.9%	4.3

Only part of the results is shown, so the mix of outcomes need not match the whole.
